RGS16-Gao HTS – RGS16-Galphao interaction regulator (human) | 220,000 tested, 0.38% active | binding response (% of control), % at 10 µM | O15492+P09471 | AID 1441 | bead-based flow cytometry RGS16-Galphao binding, fluorescence; actives lie on both sides;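 active = below 25% or above 175%, edge rows of some plates excepted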;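 also: Galphao activated by GDP with aluminum fluoride before binding; 100% = wells without compound and 0% = beads without RGS; some results beyond the cut were filed as inactive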
Insulin prom inh – TRM-6 insulin promoter activity inhibition; TRM-6 cells (human fetal islet line), insulin promoter-eGFP reporter, imaging; reporter expression induced with tamoxifen; inhibition, % at 2 µM; 130,000 tested, 0.9% active;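 active = inhibition above the mean plus 3 SD, with well images judged a real hit on visual review, cut at about 60% in these data, passing the limit was not always enough; inconclusive = inhibition over the cutoff but images rejected on review; inactive = inhibition not above the cutoff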
GALR2 agonist – GALR2 (human) receptor agonism. activation, %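 (tested at 5 µM)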. GALR2-expressing cells, agonist activation read-out. O43603. AID 803. 140,000 tested, 0.48% active;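 active = above mean plus 3 SD of all compounds, about 5% in these data, not always enough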;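 also: 0% = vehicle buffer wells and 100% = reference agonist at full effect; tested in CHO reporter cells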
PKD1 kinase inh – blocks activity of human protein kinase D1. Q15139. PKD1 kinase fluorescence polarization assay. inhibition, %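 (about 10 µM by stock and volumes)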. 200,000 tested, 0.056% active. AID 797;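 active = inhibition of 50% or more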;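 also: controls were vehicle for no effect and a reference inhibitor for full effect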
Target sequence (Q15139 whole entry, looked up): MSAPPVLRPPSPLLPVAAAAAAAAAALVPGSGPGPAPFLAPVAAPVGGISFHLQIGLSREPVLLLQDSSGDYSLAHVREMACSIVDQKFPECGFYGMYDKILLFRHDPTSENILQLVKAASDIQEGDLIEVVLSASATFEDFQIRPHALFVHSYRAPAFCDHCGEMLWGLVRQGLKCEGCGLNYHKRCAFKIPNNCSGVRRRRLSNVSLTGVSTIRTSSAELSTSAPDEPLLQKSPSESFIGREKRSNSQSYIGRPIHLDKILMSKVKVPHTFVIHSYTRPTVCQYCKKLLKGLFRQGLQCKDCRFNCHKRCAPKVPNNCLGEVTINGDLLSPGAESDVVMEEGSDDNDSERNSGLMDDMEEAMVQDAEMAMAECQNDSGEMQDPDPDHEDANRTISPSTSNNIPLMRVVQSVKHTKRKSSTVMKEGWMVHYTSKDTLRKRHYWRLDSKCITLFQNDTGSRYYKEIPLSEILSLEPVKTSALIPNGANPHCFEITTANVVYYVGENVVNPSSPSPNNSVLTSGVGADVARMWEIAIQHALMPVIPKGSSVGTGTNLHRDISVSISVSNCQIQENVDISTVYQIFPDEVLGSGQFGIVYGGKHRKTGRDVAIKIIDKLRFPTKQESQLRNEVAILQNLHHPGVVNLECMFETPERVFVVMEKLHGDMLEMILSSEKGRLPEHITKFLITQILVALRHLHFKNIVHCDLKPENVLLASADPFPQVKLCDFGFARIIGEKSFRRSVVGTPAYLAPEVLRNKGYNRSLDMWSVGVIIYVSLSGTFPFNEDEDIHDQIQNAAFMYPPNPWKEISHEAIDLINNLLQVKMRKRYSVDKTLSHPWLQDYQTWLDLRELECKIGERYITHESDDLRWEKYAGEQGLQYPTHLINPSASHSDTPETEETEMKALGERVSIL
HSV augment – increases HSV replication in cells; AID 1956; 220,000 tested, 0.005% active; maximum fold increase; HSV replication augmentation in cells, fold increase;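 active = peak rise of 1.5-fold or more in the series; inconclusive = self-fluorescent or not available for retest; tested in PC3 cells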;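 also: first round at 10 µM; read as green reporter fluorescence; hits show the peak of a series up to 25 µM; 1 = signal of infected wells without compound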
Insulin prom inh cell count – recorded beside Insulin prom inh, whose call it bears; normalized cell count, %; measured here: cell count, toxicity; reference of the scale not given here;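 cells exposed to compound for 48 h; stained nuclei by imaging scaled within each plate; lower means fewer cells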
HSV augment primary fold – further read-out of HSV augment, marked with its call; fold increase; compound at 10 µM; measured here: primary screen fold increase 10 uM; tested in PC3 cells;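 GFP signal in the first replicate; 1 = infected wells without compound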
Active calls of the source: *; i = inactive; ? = inconclusive; / = no result given.

SMILES | RGS16-Gao HTS | Insulin prom inh | Insulin prom inh cell count | GALR2 agonist | PKD1 kinase inh | HSV augment | HSV augment primary fold
Cc1cc(N(C)C)c(C#N)c(N2CCCCC2)n1 | 118 | / | / | -2.5 | -15 | i | 1
CC(C)CN(C(=O)COC(=O)c1nc(Cl)ccc1Cl)C1CCS(=O)(=O)C1 (stereo not given) | 97 | / | / | / | 1 | i | 0.98
COc1cccc(/C=C/C(=O)OCC(=O)Nc2ccccc2Sc2ccccc2)c1 | 34 | -7 | 106 | -1.4 | 2 | i | 0.99
CC(=O)Nc1c(-c2ccc(F)cc2)nc2ccccn12 | 102 | / | / | -0.1 | 6 | i | 1.1
O=C(O)c1ccc(OCC(O)Cn2cnc3ccccc32)cc1 (stereo not given) | 101 | 10 | 94 | -1.6 | 1 | i | 1
Brc1ccc(-c2csc(-c3ccncc3)n2)cc1 | 98 | 7 | 69 | -0.5 | -18 | i | 1.1
COc1ccccc1-c1noc(-c2ccccc2C(=O)Nc2cccnc2)n1 | 85 | 21 | 109 | -1.7 | -5 | i | 1
Cc1ccccc1NC(=O)c1onc2c1CCCC2 | 107 | / | / | -3.3 | -4 | i | 0.97
O=C(CCn1nc(-c2ccc(Cl)cc2)c2ccccc2c1=O)Nc1cccnc1 | 96 | / | / | / | 4 | i | 0.92
CS(=O)(=O)N1CCCC(C(=O)NCc2ccc(F)cc2)C1 (stereo not given) | 103 | -19 | 129 | -1.7 | 2 | i | 0.87
O=C(CSc1ccc(-c2cccs2)nn1)NCCc1ccccc1 | 100 | / | / | / | -10 | i | 1
CCOc1ccccc1NC(=O)CSc1nc2nc(-c3cccs3)cc(C(F)(F)F)c2c(=O)[nH]1 | 110 | / | / | / | / | i | 1
Cc1c(NC(=S)N/C(=N/S(=O)(=O)c2ccccc2)c2ccccc2)c(=O)n(-c2ccccc2)n1C | 109 | / | / | / | / | i | 1
CC(/C=N/NC(=O)c1ccc2nc(C)[nH]c2c1)=C\c1ccccc1 | 102 | 59 | 56 | -1.6 | -6 | i | 0.88
CC(=O)n1cc([C@H]2C=C(C(=O)NCc3ccccc3)O[C@@H](OCCCCO)C2)c2ccccc21 | 99 | / | / | / | 7 | i | 1.1
CC(C)(C)c1ccc(C(=O)NNc2ccc(F)cc2F)cc1 | 97 | / | / | / | / | i | 1
CCOC(=O)C(=NC(C)C)NNc1cc(Cl)ccc1Cl | 105 | -20 | 120 | 0.1 | -1 | i | 1
O=C(NCC1CCCO1)Nc1ccccc1 (stereo not given) | 100 | -29 | 106 | -0.9 | -3 | i | 0.97
CC(=O)N(C)c1nc(N)n(-c2ccccc2)n1 | 99 | / | / | / | 5 | i | 0.9
CCC1Nc2ccccc2-c2nnc(SC)nc2O1 (stereo not given) | 109 | 4 | 101 | -1.3 | -6 | i | 1
Cc1c(Br)c([N+](=O)[O-])nn1CC(=O)NCCc1ccc(Cl)cc1 | 98 | / | / | / | -1 | i | 0.97
NS(=O)(=O)c1cccc(NC(=O)Nc2ccccc2)c1 | 115 | / | / | / | / | i | 0.88
CCOC(=O)/C(=C\c1cccc(O)c1)c1nc2sc(C)c(C)c2c(=O)[nH]1 | 80 | 0 | 91 | -0.3 | -1 | i | 0.7
COc1cccc(-c2cc(-c3cccnc3)c(C#N)c(N)n2)c1 | 103 | / | / | / | / | i | 0.93
COc1cc(C(=O)Nc2ccc3c(c2)OCCO3)c(-n2cnnn2)cc1OC | 98 | -73 | 88 | -2.9 | -3 | i | 0.79
CCOC(=O)CSc1nnc(CNC(=O)c2ccc(S(=O)(=O)N3CCCC3)cc2)n1C | 290 | 90* | 114* | -3.4 | -6 | / | /
CN1Cc2sc(NC(=S)NC(=O)c3ccccc3)c(C#N)c2CC1(C)C | 97 | / | / | / | / | ? | /
COc1ccc(NCc2nc3ccccc3n2CCOc2ccccc2)cc1 | 88 | 18 | 162 | -0.3 | 4 | i | 0.75
O=C(O/N=C1/CCCc2occc21)c1ccccc1 | 93 | -21 | 108 | -0.1 | 14 | i | 1
Cc1cccc(C)c1OCC(=O)NCC1CCCO1 (stereo not given) | 100 | 56 | 58 | / | -1 | i | 1

2 successive compounds out of the list so far:
SMILES | RGS16-Gao HTS | Insulin prom inh | Insulin prom inh cell count | GALR2 agonist | PKD1 kinase inh | HSV augment | HSV augment primary fold
CC(C)(C)c1ccc(C(=O)NNc2ccc(F)cc2F)cc1 | 97 | / | / | / | / | i | 1
CCOC(=O)C(=NC(C)C)NNc1cc(Cl)ccc1Cl | 105 | -20 | 120 | 0.1 | -1 | i | 1

More compounds
SMILES | RGS16-Gao HTS | Insulin prom inh | Insulin prom inh cell count | GALR2 agonist | PKD1 kinase inh | HSV augment | HSV augment primary fold
N#CC1=C(N)C(C#N)(C#N)[C@H](c2ccsc2)[C@H]2COCC=C12 | 102 | 18 | 99 | -1.4 | 1 | ? | /
COc1ccc(-c2nc3cccc(C)n3c2NCc2ccco2)cc1OC | 100 | 0 | 135 | -0.1 | 2 | i | 0.97
COc1cccc(OCC(=O)NNC(=O)c2cccs2)c1 | 103 | / | / | -4.0 | -6 | i | 1
COc1cc(/C=N\NC(=O)OC(C)(C)C)ccc1OC(=O)c1ccco1 | 104 | 11 | 66 | / | -3 | i | 0.9
CC1(C)C2C(Cl)(Cl)C2(C)c2ccccc2N1C=O (stereo not given) | 113 | / | / | / | / | i | 1
CCN(CC)S(=O)(=O)c1ccc(N2CCOCC2)c(NC(=O)C(C)(C)C)c1 | 88 | / | / | / | / | i | 1.1
c1ccc(C2CCCN(Cc3nc(CC4CC4)no3)CC2)cc1 (stereo not given) | 105 | -4 | 223 | / | 1 | i | 0.92
Cc1nn(Cc2ccccc2)c2c1C(c1cccnc1)C(C#N)=C(N)O2 (stereo not given) | 117 | 18 | 132 | -1.6 | -5 | i | 0.93
Cc1ccc(-c2csc(NC(=O)C3=NN(C4CCS(=O)(=O)C4)C(=O)CC3)n2)cc1 (stereo not given) | 92 | / | / | / | / | i | 0.97
Cc1ccccc1NC(=S)N(Cc1ccccc1)Cc1cccs1 | 98 | / | / | / | 1 | i | 1
O=C(CCCn1c(SCc2cccc(F)c2)nc2ccccc2c1=O)NCC1CCCO1 (stereo not given) | 76 | -80 | 69 | / | 2 | i | 0.91
Cc1noc(C)c1COC(=O)c1ccc(S(=O)(=O)N2CCCCC2)cc1 | 92 | / | / | / | 9 | i | 1.1
Cn1c(CCNC(=O)c2cccs2)nnc1SCC(=O)Nc1nc(-c2ccccc2)cs1 | 109 | -58 | 90 | -1.8 | -10 | i | 0.88
Cc1ccc(CNC(=O)Cn2cnc3cc([N+](=O)[O-])ccc3c2=O)cc1 | 104 | -35 | 173 | / | -3 | i | 0.91
CCn1nnnc1SCC(=O)Nc1nnc(C(C)C)s1 | 100 | / | / | -1.9 | -2 | i | 0.98
Cc1ccccc1-n1c(N)c(C(=O)Nc2ccc(F)cc2)sc1=S | 103 | -36 | 163 | / | -6 | i | 0.96
COC(=O)c1[nH]c2ccc(Cl)cc2c1NC(=O)CN1CCc2cc(OC)c(OC)cc2C1 | 121 | / | / | -0.1 | 7 | i | 0.86
O=S(=O)(N1CCCCC1)N1CCN(c2cc(Cl)ccc2Cl)CC1 | 133 | / | / | / | -2 | i | 1.1
CCCNC(=O)c1n[nH]c(=O)c2ccccc12 | 124 | -36 | 84 | 0.0 | -1 | i | 0.87
CC(=O)c1cccc(NC(=O)Cn2nc(-c3ccc(Cl)cc3)ccc2=O)c1 | 98 | / | / | / | 6 | i | 0.87
CCOc1ccccc1C(=O)NN1C(=O)CCC1=O | 65 | 42 | 74 | -1.6 | 5 | i | 0.85
CCC(C)NC(=O)Cn1nc([N+](=O)[O-])c(Cl)c1C (stereo not given) | 108 | 20 | 86 | -3.8 | -5 | i | 1
CCOC(=O)Cc1csc(NC(=O)CC(C)(C)CC(=O)O)n1 | 88 | / | / | / | / | i | 1.1
O=C(Nc1cccc(-c2nc3cccnc3s2)c1)c1ccco1 | 102 | -481 | 46 | -3.6 | -1 | i | 0.88
C=CCOc1nc2c(c(=O)n(Cc3ccc(Cl)c(Cl)c3)c(=O)n2C)n1C | / | -367 | 46 | -1.5 | 2 | i | 1.1
Cc1ccc(/C=C/C(=O)Nc2cccc(S(=O)(=O)N3CCOCC3)c2)o1 | 95 | / | / | -2.2 | -8 | i | 1.2
CC(=O)Nc1ccc2c(c1)nc1n2CCN(C(C)c2ccccc2)C1 (stereo not given) | 104 | / | / | / | -3 | i | 0.89
CSc1nc(C)cc(C)c1C#N | 103 | -32 | 108 | -0.6 | -7 | i | 0.98
COC(=O)Nc1nnc(-c2ccncc2)s1 | 92 | -433 | 59 | -1.6 | -4 | i | 1.1
Cc1cc(NCCCn2ccnc2)n2ncc(-c3ccc(Cl)cc3)c2n1 | 109 | 50 | 70 | -2.8 | -10 | i | 0.71
Cc1cccc(NC(=O)CSc2nnc(NC(=O)CN3CCOCC3)s2)c1 | 110 | 0 | 162 | 0.8 | -4 | i | 0.73
CC(C)NCc1c(O)c(Br)cc2oc3c(c12)CCCC3 | 99 | -20 | 169 | -0.9 | 0 | i | 1.1
CCCCc1ccc(/C=C2\C(=O)c3ccccc3C(O)=C2C(=O)OCC)cc1 | 95 | / | / | -2.6 | -8 | ? | /
Cc1nc(-n2ncc(C#N)c2N)c2c3c(sc2n1)CCC3 | 102 | 42 | 109 | -2.2 | 1 | i | 0.83
CC(=O)Nc1cc(C)c(S(C)(=O)=O)c(C)c1 | 177 | -47 | 121 | -0.7 | 1 | i | 0.92
NS(=O)(=O)c1ccc(N/C=C\C(=O)c2ccc3ccccc3c2)cc1 | 97 | / | / | 2.2 | 4 | i | 1
C(#CC1CCCCC1)c1ccc2c(c1)COc1c3ccccc3nn1-2 | 104 | / | / | / | / | i | 1
O=C(Nc1ccc(Cl)c(S(=O)(=O)N2CCOCC2)c1)c1ccccc1-c1ccc(C(F)(F)F)cc1 | 103 | 32 | 166 | 0.5 | 1 | i | 0.65
Cc1c(Nc2c3c(c(C#N)c4nc5ccccc5n24)CCC3)c(=O)n(-c2ccccc2)n1C | 102 | / | / | -1.0 | -1 | ? | /
CCCn1nnnc1SCC(=O)Nc1cccc(NC(=O)c2ccco2)c1 | 99 | 13 | 73 | 0.5 | -8 | i | 0.85
COc1ccc(OC)c(CNc2ccc(F)c(Cl)c2)c1 | 103 | -7 | 79 | -0.7 | 5 | i | 1.1
CN(C)c1cccc(/C=C(\C#N)c2ccccc2)c1 | 68 | / | / | / | / | i | 0.83
Nc1ncnc2c1ncn2[C@H]1C[C@H](O)[C@@H](CO)O1 | 78 | 9 | 129 | -1.6 | -2 | i | 1
O=C(N/N=C\c1ccc(Cl)cc1Cl)c1sccc1-n1cccc1 | 94 | 4 | 172 | -2.9 | 8 | i | 0.87
O=c1ccn([C@@H]2O[C@H](CO)[C@@H](O)[C@H]2O)c(=O)[nH]1 | 100 | 29 | 85 | -1.3 | -3 | i | 0.92
Cc1ccc(NC(=O)/C(=C\c2ccc([N+](=O)[O-])cc2)NC(=O)c2ccccc2)cc1 | 96 | 66 | 71 | 3.7 | -18 | i | 1

Given with tabs: 2 of the compounds above
mol	RGS16-Gao HTS	Insulin prom inh	Insulin prom inh cell count	GALR2 agonist	PKD1 kinase inh	HSV augment	HSV augment primary fold
Cc1c(Nc2c3c(c(C#N)c4nc5ccccc5n24)CCC3)c(=O)n(-c2ccccc2)n1C	102	/	/	-1.0	-1	?	/
CCCn1nnnc1SCC(=O)Nc1cccc(NC(=O)c2ccco2)c1	99	13	73	0.5	-8	i	0.85

Ordered by value in GALR2 agonist (smallest number first): some entries from above
compound | GALR2 agonist
Cc1nc(-n2ncc(C#N)c2N)c2c3c(sc2n1)CCC3 | -2.2
O=c1ccn([C@@H]2O[C@H](CO)[C@@H](O)[C@H]2O)c(=O)[nH]1 | -1.3
Cc1c(Nc2c3c(c(C#N)c4nc5ccccc5n24)CCC3)c(=O)n(-c2ccccc2)n1C | -1.0
CC(C)NCc1c(O)c(Br)cc2oc3c(c12)CCCC3 | -0.9
CCCn1nnnc1SCC(=O)Nc1cccc(NC(=O)c2ccco2)c1 | 0.5
NS(=O)(=O)c1ccc(N/C=C\C(=O)c2ccc3ccccc3c2)cc1 | 2.2

Compound profiles (already shown). Order of screens: RGS16-Gao HTS | Insulin prom inh | Insulin prom inh cell count | GALR2 agonist | PKD1 kinase inh | HSV augment | HSV augment primary fold
`Cc1cccc(NC(=O)CSc2nnc(NC(=O)CN3CCOCC3)s2)c1` across the screens: 110 | 0 | 162 | 0.8 | -4 | i | 0.73
`NS(=O)(=O)c1ccc(N/C=C\C(=O)c2ccc3ccccc3c2)cc1` across the screens: 97 | / | / | 2.2 | 4 | i | 1
`CCCCc1ccc(/C=C2\C(=O)c3ccccc3C(O)=C2C(=O)OCC)cc1` across the screens: 95 | / | / | -2.6 | -8 | ? | /
`Cc1nc(-n2ncc(C#N)c2N)c2c3c(sc2n1)CCC3` across the screens: 102 | 42 | 109 | -2.2 | 1 | i | 0.83

Compounds as they come; any-hit rate near 1.3%.
